High-throughput results from PubChem BioAssay.
Marburg entry inh: Marburg virus entry inhibition; AID 540276; 1.8% of 300,000 active; Marburg virus pseudotyped entry inhibition, cell reporter; control for the full effect not named in the record; about a third of the inactives were read at about 46 µM; Potency, µM (top dose mostly 37.8 µM), for inactives: at the top dose activity change, negative = inhibition, most hits filed as inhibitors; active = well fitted inhibition curve with a large enough effect; inconclusive = small, poorly fitted or top-dose-only effect, or effect the other way; inactive = flat fitted curve, though single readings scatter; tested in HEK293 cells; about a fifth of its hits are not listed in these tables; also: % is scaled to controls: 0 for no effect and ±100 for the full control effect; luciferase read-out
SARS PLP yeast: inhibitors of SARS-CoV papain-like protease in yeast. 0.19% of 330,000 active. AID 485353. S. cerevisiae expressing SARS-CoV PLpro, growth rescue; control for the full effect not named in the record. Potency, µM (highest dose often 32.9 µM), for inactives: at the top dose activity, positive = growth rescue; also: 0% is about no effect; nearly all actives have a fitted effect of over 55% in size; growth read by luminescence after 48 h
RE007 growth inh: less growth of the S. pombe RE007 Vpr strain | Potency, µM (top dose mostly 92.2 µM), inactives show top-dose activity change, negative = less growth | S. pombe RE007 Vpr strain, BacTiter-Glo ATP luminescence, 24 h; control for the full effect not named in the record | 0.21% of 360,000 active; active = well fitted falling curve with a large enough effect; inconclusive = small, poorly fitted or top-dose-only effect; inactive = no such curve, though single readings can be large or run the other way;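 also: % is scaled to controls: 0 for no effect and ±100 for the full control effect; nearly all actives have a fitted effect of over 50% in size; the assay follows cell death caused by Vpr and the record does not say whether a fall means rescue or toxicity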
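Fission yeast RE007 carrying one integrated HIV-1 vpr copy, seeded at OD 0.01 in PMG+AL medium with 23 nL pinned compound. Grown 24 h at 30 degrees; viability read by BacTiter-Glo luminescence after 5 min.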
LASV entry inh: inhibitors of Lassa virus binding or cell entry; 1.2% of 300,000 active; Potency, µM (titrated, usually from 37.9 µM), for the others: top-dose activity change, negative = inhibition, hits mostly inhibitors; Lassa virus pseudotype entry inhibition, cell reporter; control for the full effect not named in the record; AID 540256; active means well fitted inhibition curve with a large enough effect; inconclusive means small, poorly fitted or top-dose-only effect, or effect the other way; inactive means flat fitted curve, though single readings scatter; tested in HEK293 cells; also: % is scaled to controls: 0 for no effect and ±100 for the full control effect; nearly all actives have a fitted effect of over 50% in size; luciferase read-out
Cruzain inh noDet: inhibitors of Trypanosoma cruzi cruzain without detergent. 2.3% of 200,000 active. Potency, µM, inactives show max response, negative = inhibition, usual class: inhibitors. purified cruzain, Z-FR-AMC fluorescence, no detergent; active = well fitted curve in the direction sought with a large enough effect; inconclusive = small, poorly fitted or top-dose-only effect, or another doubt; inactive = no such curve, though single readings can be large; an effect the other way counts as inactive or inconclusive;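 also: plate controls were enzyme without inhibitor for no effect and buffer without enzyme for full effect; nearly all actives have a fitted effect of over 40% in size; top concentration of the series not given in the record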
Target sequence (P25779 123-467 limits assumed): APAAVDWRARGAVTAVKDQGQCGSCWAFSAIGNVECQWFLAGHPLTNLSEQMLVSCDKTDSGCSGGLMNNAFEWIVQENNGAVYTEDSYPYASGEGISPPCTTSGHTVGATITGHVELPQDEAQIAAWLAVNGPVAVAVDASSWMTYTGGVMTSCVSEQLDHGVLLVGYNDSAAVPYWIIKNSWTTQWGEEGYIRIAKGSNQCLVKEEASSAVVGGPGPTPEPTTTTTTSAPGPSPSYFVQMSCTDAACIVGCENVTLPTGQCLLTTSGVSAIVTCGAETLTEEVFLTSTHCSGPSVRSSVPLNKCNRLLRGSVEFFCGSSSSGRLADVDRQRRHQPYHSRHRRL
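Detergent-free condition (0.00005% Triton X-100) in acetate buffer pH 5.5 with DTT. 1.5 nM enzyme and compound were pre-mixed 15 min, then 2 uM Z-FR-AMC substrate added; reaction progress from fluorescence change between first and third reads (60 s).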
Cruzain Triton: blocks cruzain activity in presence of Triton detergent; P25779; purified cruzain, Z-FR-AMC fluorescence, 0.01% Triton; Potency, µM, without a hit: max response, negative = inhibition, most hits filed as inhibitors; 0.43% of 200,000 active; active = well fitted curve in the direction sought with a large enough effect; inconclusive = small, poorly fitted or top-dose-only effect, or another doubt; inactive = no such curve, though single readings can be large; an effect the other way counts as inactive or inconclusive;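 also: plate controls were neutral wells for no effect and buffer without enzyme for full effect; nearly all actives have a fitted effect of over 40% in size; top concentration of the series not given in the record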
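Detergent-containing run (0.01% Triton X-100) in acetate buffer pH 5.5 with 5 mM DTT: enzyme at 1.5 nM final, 15 min compound preincubation at room temperature, then 2 uM Z-FR-AMC substrate. Activity taken as 60 s fluorescence increase at 360/450 nm.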
NS1 function inh: inhibitors of influenza NS1 protein function | S. cerevisiae slowed by influenza A NS1, growth recovery by OD600 | Potency, µM (doses to about 46.1 µM), inactives show at the highest dose activity, positive = more growth | 0.4% of 270,000 active; also: actives are rising curves; nearly all actives have a fitted effect of over 50% in size
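Compounds were scored for reversing the slow growth caused by influenza A NS1 in S. cerevisiae, measured by optical density at 600 nm. Assay medium contained 2% galactose at pH 6.0; NS1-free yeast of the same strain were the positive control.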
StopGo reporter: FMDV 2A StopGo reporter, luciferase signal. Potency, µM (highest dose often 57.9 µM), inactives show at the highest dose signal change, negative = less light. human cells with a luciferase reporter of 2A StopGo recoding; control for the full effect not named in the record. 1.2% of 410,000 active. AID 1159524; active = well fitted falling curve with a large enough effect; inconclusive = small, poorly fitted or top-dose-only effect; inactive = no such curve, though single readings can be large or run the other way; tested in HEK293T cells; also: % is scaled to controls: 0 for no effect and ±100 for the full control effect; nearly all actives have a fitted effect of over 45% in size; luciferase light after 4 h
* marks the source's active call; other numbers are inactive results; u = inconclusive; x = no result given; & = joins results of further samples; [ ] = dose if it differs, or a comment. Unless noted, calls follow the shape of the dose curve; as a rule, active means well fitted rising curve with a large enough effect; inconclusive means small, poorly fitted or top-dose-only effect; inactive means no such curve, though single readings can be large or run the other way. Potency is read from the fitted curve at half-maximal effect. Random draw from the library. Share with any hit: about 4.5%.

SMILES	Marburg entry inh	SARS PLP yeast	RE007 growth inh	LASV entry inh	Cruzain inh noDet	Cruzain Triton	NS1 function inh	StopGo reporter
COc1cccc(CCNC(=O)c2ccc(OC)c(OC3CCN(C(C)C)CC3)c2)c1	x	-5%	4%	x	x	x	5%	-6%
O=c1cc(-c2ccccc2)oc2cc(O)cc(O)c12	x	x	-12%	x	0%&1%&-2%&-20%	0.7%&-3.3%&-4.0%&-13%	x	54%&7%&0%[activator]
COc1ccc(CNC(=O)C2CCN(c3nc4ccccc4[nH]3)CC2)c(OC)c1	x	x	x	-2%[46.1 µM]	-1%	2.1%	x	-7%
O=C(O)Cn1nnc2ccccc21	x	-1%	2%	x	x	x	-1%	-12%
COc1cc(NC(=O)C2CCN(S(=O)(=O)c3cccnc3)CC2)cc(OC)c1OC	u	x	7%	3%	1%	4.0%	-5%	-20%
CCc1ccc(NC(=O)C(=O)NCC2CCCN2S(=O)(=O)c2ccccc2)cc1 (configuration not stated)	u	-1%	8%	-29%	x	x	x	-26%
CCc1nnc(NC(=O)c2cc(Cl)ccn2)s1	u	18%	u	-28%[46.1 µM]	x	x	-32%	24%
O=C(c1ccccc1NS(=O)(=O)c1ccc2c(c1)OCCO2)N1CCOCC1	-8%	u	-11%	-5%	-5%	1.0%	2%	x
Cc1cc([N+](=O)[O-])ccc1NC(=O)CSc1nccc(=O)[nH]1	9%	1%	4%	-3%	x	x	x	-11%
Cc1cc(SCc2cccc(Cl)c2)nc(=O)[nH]1	x	7%	7%	x	x	x	7%	22%
Cc1cc2c(cc1C)NC(CC(=O)Nc1ccccc1)C(=O)N2 (configuration not stated)	-4%[46.1 µM]	x	x	u	-6%	-5.4%	x	-1%
O=C(Nc1cccc(F)c1)c1ccc(Br)o1	u	-19%	-11%	4%	-7%&-6%	-0.8%&2.1%	-9%	52%[activator]
CCCCCn1c(=O)[nH]c2cc(C(=O)NCc3ccc(Cl)cc3)ccc2c1=O	-2%[46.1 µM]	x	x	0%[46.1 µM]	-2%	0.2%	x	10%
CCS(=O)(=O)N1CCc2cc(C(=O)NCCc3ccc(OC)c(OC)c3)ccc21	1%[46.1 µM]	x	x	-5%[46.1 µM]	2%	-3.0%	x	2%
CCCCCCCCS(=O)c1sc2nc3c(cc2c1N)CCCC3 (configuration not stated)	-25%	x	-1%	14%	x	x	x	u
CC(C)(C)C1CCC(=NNC(=O)c2ccc(Br)o2)CC1 (configuration not stated)	18%	0%	-4%	u	6%	0.5%	-10%	-1%
COc1cccc(C(=O)CSc2nnc(CNc3nc(-c4ccccc4)cs3)n2C)c1	-7%	-6%	-2%	-26%	-21%	-2.2%	u	-2%
CCc1nn(CC(=O)NC(C)CCc2ccccc2)c(=O)c2cc3cc(F)ccc3n12 (configuration not stated)	20%[46.1 µM]	0%	14%	x	2%	0.8%	2%	-15%&-8%
CCn1c(CC(=O)Nc2ccccc2F)nnc1SCC(=O)Nc1nncs1	-3%[46.1 µM]	0%	10%	u	x	x	-1%	-11%
O=C(CCCc1ccccc1)Nc1cccc2c1CCCC2	u	11%	6%	-10%	-4%	1.6%	1%	-9%
COc1ccc2[nH]c3c(c2c1)CCNC3C (configuration not stated)	-25%[46.1 µM]	u	0%	22%[46.1 µM]	x	x	-4%	-12%&-10%
Fc1ccc(CNc2cc(-c3ccccc3)nc3nncn23)cc1	u	x	x	3%[46.1 µM]	20%	-3.0%	x	u
CC(=O)Nc1cccc(NC(=O)CSc2ncc(C(=O)Nc3ccccc3)c(=O)n2C)c1	u	-10%	-8%	-3%	x	x	x	u
O=C(CNC(=O)c1ccc(Cl)cc1Cl)OC1CCCCC1=O (configuration not stated)	-3%	2%	-15%	u	x	x	x	7%
Cc1ccc2nc(CSc3nc(C)ccc3C#N)[nH]c2c1	2.3µM*	-25%	u	1µM*	15%	-8.6%	-95%	8.9µM*
Cc1ccc2c(c1)C(=O)OC(C(=O)Nc1ccccc1C(=O)O)C2 (configuration not stated)	x	x	x	-3%[46.1 µM]	4%	5.6%	x	7%
CC1(C)Cc2cccc(C(=O)NCc3ccco3)c2O1	1%[46.1 µM]	1%	0%	17%[46.1 µM]	x	x	1%	u
CCN(CC)c1ccc(NC(=O)c2c(OC)cccc2OC)c(C)c1	16%	x	2%	0%	7%	6.8%	-2%	u
COc1cccc(C2CC(c3c(F)cccc3Cl)n3nc(N)nc3N2)c1 (configuration not stated)	29%	9%	10%	2%	-10%	-3.1%	4%	-13%
Nc1ccc(S(=O)(=O)NCC2CCCCO2)cc1 (configuration not stated)	u	x	9%	19%[46.1 µM]	x	x	x	39%[activator]

Five compounds out of the list, sorted by SMILES length, lowest first.
SMILES	Marburg entry inh	SARS PLP yeast	RE007 growth inh	LASV entry inh	Cruzain inh noDet	Cruzain Triton	NS1 function inh	StopGo reporter
COc1ccc2[nH]c3c(c2c1)CCNC3C (configuration not stated)	-25%[46.1 µM]	u	0%	22%[46.1 µM]	x	x	-4%	-12%&-10%
CC1(C)Cc2cccc(C(=O)NCc3ccco3)c2O1	1%[46.1 µM]	1%	0%	17%[46.1 µM]	x	x	1%	u
Cc1ccc2nc(CSc3nc(C)ccc3C#N)[nH]c2c1	2.3µM*	-25%	u	1µM*	15%	-8.6%	-95%	8.9µM*
CC(C)(C)C1CCC(=NNC(=O)c2ccc(Br)o2)CC1 (configuration not stated)	18%	0%	-4%	u	6%	0.5%	-10%	-1%
Cc1ccc2c(c1)C(=O)OC(C(=O)Nc1ccccc1C(=O)O)C2 (configuration not stated)	x	x	x	-3%[46.1 µM]	4%	5.6%	x	7%

Later entries.
SMILES	Marburg entry inh	SARS PLP yeast	RE007 growth inh	LASV entry inh	Cruzain inh noDet	Cruzain Triton	NS1 function inh	StopGo reporter
CCn1cc(S(=O)(=O)c2ccc(C)cc2)c(=O)c2cc(OC)ccc21	u	4%	15%	-2%[46.1 µM]	x	x	2%	13%
CC(Oc1ccc(Cl)cc1)c1ccn[nH]1 (configuration not stated)	u	0%	-4%	u	x	x	-2%	-4%
COc1ccc(Br)cc1C1C(C(=O)Nc2ccc(C)cc2C)=C(C)Nc2ncnn21 (configuration not stated)	-22%[46.1 µM]	x	x	u	u	-2.9%	x	5%
COc1ccc(C(=O)Nn2c(SCC(=O)c3ccc(Cl)cc3)nc3ccccc3c2=O)cc1	u	-13%	-2%	u	u	-1.0%	4%	-28%
O=Cc1ccc(C(=O)OCC(=O)N2CCCC2)cc1	16%[46.1 µM]	-3%	2%	9%	x	x	-2%	8%
COc1ccc(-c2cc(C(F)(F)F)n3ncc(C(=O)O)c3n2)cc1OC	5%	1%	-4%	1%	5%	-4.8%	10%	-17%
COc1ccc(OCCC(=O)N2CCCCC2)cc1	-1%	4%	-1%	9%	0%	-3.8%	4%	32%[activator]
CC(=O)Nc1ccc(S(=O)(=O)Nc2cccc(-c3ccc(N4CCC(C)CC4)nn3)c2)cc1	x	x	x	11µM*	11%	-2.7%	x	u
Cc1cc(-n2nc(C)cc2C)n2nc(C)c(-c3ccc(Cl)cc3)c2n1	u	6%	-11%	2%	-6%	3.0%	4%	-1%
COC(=O)c1cc(NC(=O)c2nn(C)c(=O)c3ccccc23)cc(C(=O)OC)c1	x	-1%	6%	x	x	x	7%	-7%
CCOc1ccc(CNC(=O)c2ccc(Sc3ccc(Cl)cc3)c(NC(C)=O)c2)cc1OC	u	-6%	3%	u	u	-0.5%&-9.6%	10%	u
COc1ccccc1OCCNC(=O)C1CC(=O)N(c2ccc3c(c2)OCCO3)C1 (configuration not stated)	9%	-5%	-2%	-3%	x	x	x	3%
O=C(Nc1ccc(SC(F)F)cc1)c1cc(-c2cccs2)on1	4%[46.1 µM]	x	x	27%[46.1 µM]	u	0.0%	x	37%[activator]
Cc1ccc(-n2c(=O)c3c(cnn3C)n(Cc3ccccc3F)c2=O)cc1	u	x	x	1%[46.1 µM]	9%	0.3%	x	3%
OCCNc1nc(-c2ccccc2)c2cc(Cl)ccc2n1	u	-1%	-18%	1%	x	x	-1%	-15%
O=C(NC1CCN(Cc2ccccc2)CC1)c1c(Cl)cccc1Cl	x	-1%	-4%	x	x	x	2%	-19%
Cc1ccc2c(c1)CN1CN2Cc2cc(C)ccc21	0%	1%	-9%	-9%	7%	1.8%	7%	-21%
Cc1ccc(-c2nn3c(-c4cccc(Cl)c4)nnc3s2)cc1	1%	16%	x	x	u	-5.6%	2%	x
CCOc1ccc(C2=CSC3=NCCN23)cc1Cl	-19%	4%	-5%	-2%	x	x	5%	1%
COc1ccc(N2CC(NC(=O)c3cccs3)CC2=O)cc1 (configuration not stated)	x	x	x	16%[46.1 µM]	-6%	0.6%	x	-8%
CCCCN(CCCC)S(=O)(=O)c1ccc(NC(=O)c2cccs2)cc1	18µM*	-9%	5%	u	2%	-2.8%	2%	0%
CCOc1ccc2nc(NCCNC(=O)C(C)C)c(C)cc2c1	10%[46.1 µM]	6%	3%	5%	-6%	-5.8%	3%	4%
Cn1c(SCC(=O)c2ccc(F)cc2)nnc1-c1cccnc1	14%[46.1 µM]	1%	34%	4%	x	x	x	6%
Cc1[nH]c2ccccc2c1C(=O)C(=O)N1c2ccccc2CC1C (configuration not stated)	u	0%	2%	-20%	x	x	7%	u
Cn1nccc1C(=O)Nc1ccc(Cl)cc1	3%&3%	-2%	-15%	9%	8%	-2.4%	-21%	x
CC(=O)N1N=C(c2ccncc2)OC12CCCCCC2	-27%	6%	11%	6%	15%	-6.4%	-7%	-19%
O=C(c1cc2cc([N+](=O)[O-])ccc2oc1=O)N1CCN(c2ncccn2)CC1	18%	0%	15%	-3%	-7%	1.8%	14%	-8%
